# VDR inhibitor – Inhibitors of the vitamin D receptor (VDR): qHTS; Vitamin D3 receptor (Homo sapiens), P11473; VDR-SRC2-3 peptide fluorescence polarization, 2 h; Potency, µM, for the others: max response, negative = inhibition, most hits filed as inhibitors; 400,000 tested, 0.93% active; AID 504847, 2011; active = well fitted inhibition curve with a large enough effect; inconclusive = small, poorly fitted or top-dose-only effect, or another doubt; inactive = no such curve, though single readings can be large or run the other way; also: series mostly up to about 120 µM
# Target sequence (P11473 whole entry, looked up): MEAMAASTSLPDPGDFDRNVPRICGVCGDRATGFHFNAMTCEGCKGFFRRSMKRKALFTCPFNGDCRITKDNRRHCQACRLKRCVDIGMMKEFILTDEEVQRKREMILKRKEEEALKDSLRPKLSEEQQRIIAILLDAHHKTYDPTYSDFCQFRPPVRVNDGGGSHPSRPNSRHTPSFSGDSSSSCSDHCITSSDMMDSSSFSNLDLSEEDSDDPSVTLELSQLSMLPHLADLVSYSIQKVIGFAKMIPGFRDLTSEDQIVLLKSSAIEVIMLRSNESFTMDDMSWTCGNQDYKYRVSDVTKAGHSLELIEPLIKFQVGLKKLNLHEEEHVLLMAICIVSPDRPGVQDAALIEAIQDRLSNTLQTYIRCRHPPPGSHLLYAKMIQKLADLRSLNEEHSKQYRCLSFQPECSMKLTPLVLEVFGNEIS
#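 Measured by FP: displacement of SRC2-3 coactivator peptide from VDR by library compounds, following a two-hour ambient incubation.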
# * hit, by the source's call; u = inconclusive; & = joins results of further samples; [ ] = remark or other dose. % is scaled to controls: 0 for no effect and ±100 for the full control effect; potency is read from the fitted curve at half-maximal effect. An excerpt, so the mix of outcomes need not match the whole.
SMILES	VDR inhibitor
CCN(CC)c1nc(N)nc(NS(=O)(=O)c2ccc(Cl)cc2)n1	-2%
O=C(CCCN1C(=O)/C(=C/c2cccs2)SC1=S)Nc1ccccc1O	-18%
Cc1ccc(NC(=O)C2CCCN2S(=O)(=O)c2cccc3nsnc23)c(C)c1 (stereo not drawn)	-15%
COc1cc(/C=C(\C#N)c2ccccn2)ccc1OCc1ccc(Cl)cc1	-1%
CCOCCCNC(=O)Cn1cc2c(n1)CCCC2	-8%
COc1ccccc1CNC(=O)c1ccc(N2CCCC2)c(NC(=O)NCCC(C)C)c1	16%
CCN1CCN(Cc2ccc(NC(=O)c3cc(NC(=O)c4cnnc5ccccc45)cc(OC)c3)cc2C(F)(F)F)CC1	-13%
O=S(=O)(Nc1ccc(-c2ccc(N3CCCCCC3)nn2)cc1)c1ccc(C(F)(F)F)cc1	-8%
O=C(c1ccccc1NS(=O)(=O)c1ccccc1[N+](=O)[O-])N1CCCC1	-11%
O=C(CSCc1c(Cl)cccc1Cl)NCC1CCCO1 (stereo not drawn)	0%
CC1(C)C2CCC(C2)C1(C)NC(=O)CNCc1cccs1 (stereo not drawn)	-11%
Cc1ccc(Cl)c(Nc2ccccc2C(=O)O)c1Cl	u
CC(C)(C)OC(=O)N1Cc2ccccc2C[C@H]1C(=O)NCC(=O)Nc1ccc2c(c1)OCCO2	-17%
CCCCNc1c(-c2ccc(OC)c(SC3CCCCC3)c2)nc2cnccn12	10%
Cc1nn(C)c(C)c1C(C)NC(=O)c1cc(COc2cncc(Cl)c2)on1 (stereo not drawn)	-8%
O=C(N/N=C/c1c[nH]c2ccccc12)c1cc(Br)ccc1O	19%

# Ordered by number of heavy atoms (rising): some entries from above
SMILES	VDR inhibitor
O=C(CSCc1c(Cl)cccc1Cl)NCC1CCCO1 (stereo not drawn)	0%
COc1ccccc1CNC(=O)c1ccc(N2CCCC2)c(NC(=O)NCCC(C)C)c1	16%
CCN1CCN(Cc2ccc(NC(=O)c3cc(NC(=O)c4cnnc5ccccc45)cc(OC)c3)cc2C(F)(F)F)CC1	-13%

# Continued.
SMILES	VDR inhibitor
CN(C[C@H](Cc1ccccc1)N(C[C@H](CC1CCCCC1)N(CCc1ccccc1)N=O)N=O)N=O	-9%
Cc1cc(=O)oc2cc(OCC(=O)OCC(=O)N3CCC(C)CC3)ccc12	-8%
COc1ccccc1/C=C1\SC(=O)N(CCC(=O)NNC(=O)c2ccccc2Cl)C1=O	-7%
CCOc1ccc(C(O)(c2ccccc2)C(CN2CCCC2)c2ccccc2)cc1 (stereo not drawn)	u
Cc1cccc(NC2=NC(C)(C)N=C(N)N2)c1	-8%
Cc1cccc(NC(=O)c2cccc(NC(=O)Cc3cccs3)c2)c1	19%
COc1cc(C(=O)COC(=O)C2CCCCC2)cc(OC)c1OC	-3%
COC(=O)c1cc(NS(=O)(=O)c2ccc3c(c2)OCCO3)ccc1Cl	7%
Cc1nn(Cc2ccccc2)c(C)c1CNC(=O)c1ccc(F)c(S(=O)(=O)N2CCOCC2)c1	u
O=[N+]([O-])c1ccc(S(=O)(=O)NCCS(=O)(=O)N2CCN(c3ccccc3)CC2)cc1	-2%
CCCCn1c(NC(=O)c2ccc(Br)o2)c(S(=O)(=O)c2ccccc2)c2nc3ccccc3nc21	u
CCOC(=O)CCC(=O)Nc1ccc(S(=O)(=O)Nc2cc(OC)nc(OC)n2)cc1	-12%
COc1cccc(CNc2ncc(Br)cc2Br)c1O	-5%
COC(=O)[C@H](COC(C)(C)C)NC(=O)O[C@@H]1C(=O)c2cc(OC)ccc2O[C@H]1c1cccc(OC)c1	8%
COc1ccc(C(=O)Nc2ncc(C)s2)cc1S(=O)(=O)N1CCOCC1	-2%
COc1ccc2c3c([nH]c2c1)C1(NCC3)C(=O)Nc2ccccc21 (stereo not drawn)	0%
COc1ccc(S(=O)(=O)N2CCCOC2CNC(=O)C(=O)NCCc2ccco2)cc1OC (stereo not drawn)	-25%
CCCC(=O)NCCc1nc2ccccc2n1Cc1c(F)cccc1Cl	-23%
CN(Cc1ccccc1)C(=O)COC(=O)c1ccccc1NS(=O)(=O)c1cccc(N)c1	10%
CC1=Nc2cc(Cl)ccc2Oc2ccccc21	11%
Cc1cc(C(=O)OCC(=O)Nc2ccc(F)cc2[N+](=O)[O-])c2ccccc2n1	-5%
C=C(C(=O)c1ccccc1)C(c1ccccc1)C(C)C(=O)c1ccccc1 (stereo not drawn)	-8%
CCCCC1(c2ccc(F)cc2)NC(=O)N(CC(=O)Nc2ccc(N3CCOCC3)cc2)C1=O (stereo not drawn)	-19%
CN(Cc1ccccc1)C(=O)COC(=O)c1ccc(S(=O)(=O)N(C)C)cc1	2%
O=C(c1ccc2nc3ccccc3c(=O)n2c1)N1CCN(Cc2ccc3c(c2)OCO3)CC1	-4%
Cc1csc(NC(=O)c2ccc[nH]c2=O)n1	-13%
CCOc1ccc(NC(=O)c2cccc(S(=O)(=O)Nc3c(C)n(C)n(-c4ccccc4)c3=O)c2)cc1	12%
CC1(C)Nc2ccccc2N(Cc2ccc([N+](=O)[O-])cc2)C1=O	-8%
CCOC(=O)C1=C(Nc2ccccc2)CC(C)(O)C(C(=O)OCC)C1c1ccc(Br)cc1 (stereo not drawn)	17%
Cc1ccc(S(=O)(=O)N2[C@@H](c3ccc(F)cc3)C(C(=O)O)=CC[C@H]2c2ccc(C(C)C)cc2)cc1	-13%
Cc1[nH]c2ccccc2c1C(c1ccncc1)N1CCN(c2ccccc2F)CC1 (stereo not drawn)	-11%
C#Cc1cccc(Nc2ncnc3cc(OC)c(OC)cc23)c1	-2%
Cc1nc(-c2ccc(Br)cc2)ccc1C(=O)O	-13%
CN(C(=O)COC(=O)c1ccc(Cl)c(S(=O)(=O)N2CCCCC2)c1)C1(C#N)CCCCC1	-3%
COC(=O)c1cc(Br)ccc1NC(=O)Nc1ccc(C)cc1	-3%
CC(C)NS(=O)(=O)c1cccc2nsnc12	3%
CCCc1nnc(SCC(=O)Nc2nccs2)o1	-1%
Cc1cc(C)n(C(=O)CCC(=O)Nc2ccc(C)c(C)c2)n1	14%
Cc1cccc(-n2cc[nH]c2=S)c1	-6%
Cc1ccccc1-c1ccc2ncnc(N3CCOCC3)c2c1	56µM*
Cc1cc(C(=O)COc2cc(F)ccc2[N+](=O)[O-])c(C)n1C1CC1	9%
COc1ccccc1NC(=O)c1[nH]c(C)c(C(C)=O)c1C	-11%
CNS(=O)(=O)c1cc(O)c2c(S(=O)(=O)NC)cccc2c1	1%
COc1ccc(NC(=O)CNC(=O)C2CCCCC2)cc1	2%
Nc1ccc(C(=O)Nc2ccc(NC(=O)c3ccco3)c(O)c2)cc1	-6%
CC(C)c1ccc(OCC(=O)Nc2ccc(OC(F)(F)F)cc2)cc1	-18%
CCCC(=O)NC(c1ccccc1Cl)c1ccc2cccnc2c1O (stereo not drawn)	21%
CCc1nnc(NS(=O)(=O)c2ccc(NC(=S)NC(=O)c3cccs3)cc2)s1	-13%
CC1=C(C(=O)OC2CCCC2)C(c2coc3ccccc3c2=O)C2=C(CC(C)(C)CC2=O)N1 (stereo not drawn)	3%
Cc1n[nH]c(C)c1CCCCOc1ccc([N+](=O)[O-])cc1	-17%
O=C(CSc1ccsc1[N+](=O)[O-])Nc1cc(F)ccc1F	6%
O=C1C(Cl)=C(N2CCCCCC2)C(=O)N1c1ccccc1	-4%
CCOC(=O)c1ccccc1NC(=O)Cn1c(=O)n(CCC(=O)N2CCc3ccccc3C2)c(=O)c2ccccc21	17%
CC(=O)c1c(C)[nH]c(C(=O)NCc2ccccc2)c1C	0%
C=Cn1cc[n+](CC(=O)c2cc(C(C)(C)C)c(O)c(C(C)(C)C)c2)c1	-11%
Oc1c(N=NC(=S)Nc2ccccc2F)c2ccccc2n1Cc1ccccc1	-5%

# (cont.)
SMILES	VDR inhibitor
COc1ccccc1/C=C/C(=O)NC(=S)NCC1CCCO1 (stereo not drawn)	0%
O=[N+]([O-])c1ccc(CNc2cccc(F)c2)s1	7%
Cc1c(NC(=O)Nc2ccc([N+](=O)[O-])cc2)c(=O)n(-c2ccccc2)n1C	u
O=C(CN1C(=O)S/C(=C/c2cccs2)C1=O)N1CCCC1	1%
CN(Cc1ccco1)c1cc(-c2cccc(NS(C)(=O)=O)c2)ncn1	u
COc1ccc(Cn2c(=O)oc3ccc(C)cc32)cc1OC	-6%
Cc1ccc(C)c(NC2=CC(=O)CC(C)(C)C2)c1C#N	18%
CCOC(=O)CN1C(=O)C(Sc2n[nH]c(-c3ccccc3)n2)CCc2ccccc21 (stereo not drawn)	2%

# Remaining list, next part.
smiles	VDR inhibitor
O=C(Nc1cccc(Cl)c1)Nc1nc(-c2ccc(Cl)cc2)cs1	-17%
COC(=O)Cn1c(=O)c2c(n(Cc3ccccc3)c1=O)N/C(=C/c1ccc(Br)cc1)C2=O	u
CN(C)C(=O)c1ccc(S(=O)(=O)NCc2ccccc2Cl)s1	20%
COC(=O)C1=NN(c2cccc3ccccc23)C2C(=O)N(c3ccccc3OC)C(=O)C12 (stereo not drawn)	-17%
Cc1ccc(CNS(=O)(=O)c2ccc(F)c(C(=O)Nc3ccc(C)c(F)c3)c2)cc1	15%
CC(=O)c1ccc(NC(=O)CC2Nc3cccc4cccc(c34)NC2=O)cc1 (stereo not drawn)	-17%&-22%
Cc1ccc(C(=O)NC(=O)OCCn2c(C)cnc2[N+](=O)[O-])cc1	13%
CN1CCN(S(=O)(=O)c2cc(C(F)(F)F)ccc2Cl)CC1	-1%
Nc1c(Cl)cc(NC(=O)c2ccccc2C(=O)O)cc1Br	0%
CN1C(=O)CC(N2CCN(c3ccc(Cl)c(Cl)c3)CC2)C1=O (stereo not drawn)	-1%
COc1ccc(NC(=O)Nc2ccc(Cc3ccncc3)cc2)cc1OC	-3%
CC(=O)Nc1ccc(NC(=O)COc2ncnc3ccccc23)cc1	-7%
COc1cccc(Oc2nc(N)ncc2[N+](=O)[O-])c1	3%
Cc1ccc(N=C2NC(=O)/C(=C/c3cccn3C)S2)cc1	-18%
CCCN(CC(=O)Nc1ccc(OC)c(OC)c1)CC(=O)Nc1ccc(F)c(F)c1F	-11%
Cc1ccc(C)c(S(=O)(=O)N2CCCC2CNC(=O)C(=O)NCc2ccccn2)c1 (stereo not drawn)	3%

# Rewritten with the structure last: six of the compounds above
VDR inhibitor	smiles
-8%	CCOCCCNC(=O)Cn1cc2c(n1)CCCC2
6%	O=C(CSc1ccsc1[N+](=O)[O-])Nc1cc(F)ccc1F
20%	CN(C)C(=O)c1ccc(S(=O)(=O)NCc2ccccc2Cl)s1
3%	COc1cccc(Oc2nc(N)ncc2[N+](=O)[O-])c1
11%	CC1=Nc2cc(Cl)ccc2Oc2ccccc21
-25%	COc1ccc(S(=O)(=O)N2CCCOC2CNC(=O)C(=O)NCCc2ccco2)cc1OC (stereo not drawn)

# Copied from the list:
# Value for `COc1cccc(Oc2nc(N)ncc2[N+](=O)[O-])c1` under VDR inhibitor: 3%
# Value for `Cc1ccc(C)c(S(=O)(=O)N2CCCC2CNC(=O)C(=O)NCc2ccccn2)c1` (stereo not drawn) under VDR inhibitor: 3%
# Value for `CN1C(=O)CC(N2CCN(c3ccc(Cl)c(Cl)c3)CC2)C1=O` (stereo not drawn) under VDR inhibitor: -1%
# Value for `Cc1ccc(N=C2NC(=O)/C(=C/c3cccn3C)S2)cc1` under VDR inhibitor: -18%

# Continuation:
smiles	VDR inhibitor
Cn1cc(S(=O)(=O)c2ccccc2)c(=O)c2cc(F)c(N3CCCC3)cc21	8%
O=C(CCc1ccccc1)NCCc1cccs1	-8%
Cc1ccc(-c2cc(C(=O)NCc3ccc4c(c3)OCO4)no2)cc1	-3%
Cc1ccc(NC(=O)CCN2CCOCC2)cc1C	-19%
CCOP(=O)(OCC)C(Nc1ccc(C(=O)O)cc1)c1ccccc1 (stereo not drawn)	14%
O=C(COc1ccc(Nc2ccccc2)cc1)OCC(=O)N1CCCCC1	-1%
COCCN=C1Sc2nc3ccc(C)cc3cc2CN1Cc1cccs1	-15%
COc1ccc(S(=O)(=O)N(C)CC(=O)Nc2ccccc2SC)cc1Cl	-3%
COc1ccc(C2C(C#N)=C(C)NC(C)=C2C(=O)OC(C)C)c(OC)c1 (stereo not drawn)	-13%
CCn1ncc(C(=O)Nc2ccccc2C)c1C	-10%
C/C(=N\O)C(C)(C)Nc1ccc(F)cc1	-20%
CC(=O)c1ccc(C#CC(C)(C)O)s1	36%[activator]
COc1ccc2cc(C(c3nnnn3C(C)(C)C)N3CCSCC3)c(=O)[nH]c2c1 (stereo not drawn)	-6%
CN(C)/C(Cn1cncn1)=C1/N=C(c2ccccc2)OC1=O	2%
CC1CCCN(Cc2csc(N)n2)C1 (stereo not drawn)	10%
Cc1ccn2c(Nc3ccc(F)cc3)c(-c3ccccn3)nc2c1	-18%
CCCNC(=O)C(Cc1ccccc1)NC(=O)Cc1ccccc1 (stereo not drawn)	16%
Fc1ccccc1OCCCCSc1ncccn1	0%
COc1ccc(CNC(=O)c2cc(-c3ccc(C)c(C)c3)n[nH]2)cc1	4%
O=C(NC(Cc1c[nH]c2ccccc12)C(=O)O)/C(=C/c1ccc2c(c1)OCO2)NC(=O)c1ccccc1 (stereo not drawn)	-2%
CCOC(=O)COc1c(Cl)cc(C2NC(=S)NC(c3ccccc3)=C2C(C)=O)cc1OC (stereo not drawn)	-29%
CCOc1ccc2ccccc2c1CNc1nnnn1CC	18%
COc1cccc(NC(=O)CCc2nnc3n(Cc4ccccc4Cl)c(=O)c4ccccc4n23)c1	-18%
C=CCOn1c(=O)c(-c2ccc(OC)c(OC)c2)[n+]([O-])c2ccccc21	7%
Cc1ccc(CN2COc3cc(C)c4c(oc(=O)c5ccccc54)c3C2)cc1	8%
CC(=O)CSc1ncnc2sc3c(c12)CCCC3	-19%
Cc1cccc(NC(=O)C2CCN(S(=O)(=O)c3c(C)noc3/C=C/c3ccco3)CC2)n1	-11%
Nc1nc(SCC(=O)Nc2cc(-c3ccccc3)nn2-c2ccccc2)n[nH]1	-11%
COc1ccc(OCC(=O)N(Cc2ccc(C)o2)C2CCS(=O)(=O)C2)cc1 (stereo not drawn)	6%&22%
CC1CCCCC1NC(=S)Nc1ccc(Cl)cc1Cl (stereo not drawn)	12%
Cc1ccc(N(C)C(=O)c2cnc(N3CCOCC3)c3ccccc23)cc1C	13%
